Compound activity: PubChem, several laboratories
PrP 5UTR inh: suppresses PrP 5' UTR mRNA reporter expression | inhibition, % (test concentration not listed) | AID 488862 | 0.35% of 340,000 active | cell-based PrP 5' UTR mRNA reporter, plate reader;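 active means every replicate at 50% or more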;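 further: 0 = median of the neutral control wells; tested in H4 reporter cells; numbers are from one replicate; inactives centre near -14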
RN4220 kill: kills Staphylococcus aureus RN4220 | 0.33% of 330,000 active | inhibition, % (concentration not given with the values) | S. aureus RN4220 growth, OD600, 16 h;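 active means z-score of -3 or lower and OD600 up to 0.18 on both plates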;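 further: plate controls were untreated cells for no effect and reference antibiotic for full effect; stock transfer was 100 nL into about 80 µL; one replicate is shown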
Mtb hypoxia rep: Mtb hypoxia fluorescent reporter inhibition; 0.1% of 300,000 active; fluorescence inhibition, % (concentration not given with the values); M. tuberculosis hypoxia-regulated fluorescent reporter, fluorescence;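 active means 35 to 45% if threefold the growth effect, above 45% if 1.5-fold the growth effect; inactive means the rest, general growth blockers included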;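 further: wells of about 50 µL received 100 nL stock; 0% = vehicle wells and 100% = reference inhibitor wells; whole bacteria with a GFP reporter of the hypoxia response; strong numbers were not always called active; many hits fall short of the cut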
BJeLR viability: kills HRASV12-expressing BJeLR cells; BJeLR (HRASV12) viability, CellTiter-Glo ATP luminescence, 48 h; reference of the scale not given here; inhibition, % (concentration not given with the values); 0.17% of 300,000 active; AID 1554;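 active means replicate mean above 50%; inconclusive means above 50% but judged a plate artefact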;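 further: 50 nL library stock added to about 25 µL; numbers are from one replicate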
Autofluor counter: counter-screen for toxin protease inhibitors: compound fluorescence; AID 624483; 3.1% of 360,000 active; fluorescence intensity (concentration not given with the values); compound autofluorescence counterscreen, microsphere flow cytometry; stronger effect = higher value;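 active means at least 3 SD above the mean of all compounds, about 16000 in these data; inconclusive means too few beads counted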;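 further: 100 nL of 1 mM stock went into each well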
Sa ugtP lethal: growth inhibition of S. aureus ugtP deletion strain. growth inhibition, % (concentration not given with the values). 0.54% of 330,000 active. S. aureus RN4220 ugtP deletion, OD600 growth, 16 h; some inactives read as strong as hits;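 active means z-score under -3 and OD600 up to 0.15 on both plates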;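 further: plate controls were untreated wells for no effect and antibiotic for full effect; wells of about 80 µL received 100 nL stock; the first replicate is given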
Mtb hypoxia rep growth: also measured in Mtb hypoxia rep; calls as there; growth inhibition, %; measured here: M. tuberculosis growth (absorbance);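 0% = vehicle and 100% = reference antibiotic; read after six days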
Starred values were filed as active, the others as inactive; ? = inconclusive; . = not tested or not shown. Hits appear at their usual frequency; overall some 4% were active at least once.

SMILES | PrP 5UTR inh | RN4220 kill | Mtb hypoxia rep | Mtb hypoxia rep growth | BJeLR viability | Autofluor counter | Sa ugtP lethal
CN(c1ccccc1)S(=O)(=O)c1ccc(Cl)c(C(=O)OCC(=O)N2CCOCC2)c1 | -15 | 15 | 5 | 10 | -1 | 4526 | 7
CCN(CC)CCC(O)(c1ccc2c(c1)OCO2)c1cc(OC)c(OC)c(OC)c1 (configuration not stated) | -13 | 1.6 | 9 | 6 | . | 3935 | 3
O=C(O)c1ccccc1Nc1cc(Cl)c2nonc2c1[N+](=O)[O-] | -15 | 3.8 | . | . | 7 | 4441 | 3
CC1(C)CC(=O)C(C(c2ccncc2)C2C(=O)CC(C)(C)CC2=O)C(=O)C1 | -4 | -2.7 | 9 | 7 | 1 | 3145 | 9
COc1ccc(OC)c2c1sc(=NC(=O)C(C)C)n2C | -7 | 16 | 1 | 4 | 2 | 5880 | -10
Cc1cc(-c2ccc(S(=O)(=O)N3CCN(c4ccccc4F)CC3)s2)on1 | -8 | 2.9 | 3 | -2 | 6 | 3023 | -4
Cc1cccc(NC(=O)c2cc(Cl)ccc2[N+](=O)[O-])c1 | -26 | 5.8 | 9 | 5 | 12 | 8309 | 0
C=CCn1c(SCc2ccc3nonc3c2)nnc1-c1cccs1 | 19 | 11 | . | . | -5 | 3960 | 0
O=C(NCc1ccco1)C1CCCN(S(=O)(=O)c2cccc3cccnc23)C1 (configuration not stated) | -34 | -2.1 | . | . | -3 | 6273 | 6
COc1ccccc1CN1CC(C(=O)N(C)CCOc2ccccc2)CCC1=O (configuration not stated) | -14 | 4.0 | 16 | 7 | -4 | 6213 | -1
CC(C)Oc1ccc(C(=O)NC(Cc2c[nH]c3ccccc23)C(=O)NN)cc1 (configuration not stated) | -36 | 2.8 | 10 | 2 | -1 | 4635 | 8
COc1ccc(CC(=O)Nc2nc(C)cs2)cc1S(=O)(=O)N1CCOCC1 | -17 | 1.1 | -2 | 6 | . | 3383 | -3
O=C(O)c1ccc(Nc2nc(-c3ccccc3)nc3ccccc23)cc1 | . | -9.3 | -1 | 4 | 0 | 3480 | 7
NN/C(=C\[N+](=O)[O-])Nc1ccccc1 | -28 | 4.7 | 13 | 7 | -2 | 2143 | 5
CCc1ccc2c(CC(=O)Nc3cccc(S(=O)(=O)N4CCOCC4)c3)coc2c1 | -22 | -3.1 | 5 | -13 | . | 8872 | 0
Nc1nnnn1N=Cc1cccs1 | . | 3.9 | 0 | 0 | . | . | 1
Cc1nccc2c1[nH]c1ccc(Br)cc12 | 23 | -0.2 | . | . | 11 | 4130 | -10
c1ccc2sc(N3CCNCC3)nc2c1 | -23 | 0.1 | 3 | 7 | -13 | 4308 | -4
COc1cccc(NC(=O)CN2C(=O)CSc3ccc(S(=O)(=O)N4CCC(C)CC4)cc32)c1 | 13 | -2.4 | 1 | 1 | -12 | 5721 | 0
CCOc1ccc(N2C(=O)CC(N3CCN(c4ccccc4F)CC3)C2=O)cc1 (configuration not stated) | -15 | 5.9 | 9 | 7 | -5 | 4701 | 3

Part of the list above with just Autofluor counter, PrP 5UTR inh and Mtb hypoxia rep growth:
compound,Autofluor counter,PrP 5UTR inh,Mtb hypoxia rep growth
O=C(O)c1ccc(Nc2nc(-c3ccccc3)nc3ccccc23)cc1,3480,.,4
CC(C)Oc1ccc(C(=O)NC(Cc2c[nH]c3ccccc23)C(=O)NN)cc1 (configuration not stated),4635,-36,2
COc1ccccc1CN1CC(C(=O)N(C)CCOc2ccccc2)CCC1=O (configuration not stated),6213,-14,7

Following part.
SMILES | PrP 5UTR inh | RN4220 kill | Mtb hypoxia rep | Mtb hypoxia rep growth | BJeLR viability | Autofluor counter | Sa ugtP lethal
CC1CCN(C(=O)c2ccc(S(=O)(=O)N3CCCCCC3)cc2)CC1 | -8 | 0.4 | -4 | 4 | . | 8441 | 3
COc1ccc(NS(=O)(=O)c2cc(NC(=O)c3ccc(F)cc3)ccc2OC)cc1 | -7 | -3.5 | 0 | 3 | -6 | 2150 | 5
O=C(COc1ccc(F)cc1)NNC(=O)c1cc2ccccc2oc1=O | -17 | 0.2 | -7 | -5 | 5 | 2096 | 2
O=C(N/N=C/c1cnc(N2CCCCC2)s1)c1ccc(C(F)(F)F)cc1 | -22 | . | . | . | -10 | 4422 | .
NC(Cc1ccc([N+](=O)[O-])cc1)=NOC(=O)C(c1ccccc1)c1ccccc1 | . | -2.8 | 19 | 9 | . | . | 8
Cc1nc(N[C@@H](Cc2ccccc2)C(=O)O)c2oc3ccccc3c2n1 | -16 | 3.8 | 15 | 9 | -1 | 2480 | 9
C#CCOCCOCCOCCNc1nc(N2CCN(C(=O)Cn3cc(CCCN=C(N)N)nn3)CC2)nc(N2CCN(C(=O)Cn3cc(CC(C)O)nn3)CC2)n1 (configuration not stated) | -24 | 3.5 | 4 | 5 | . | 4431 | -6
CCn1c(SCC(=O)N2CCOCC2)nc2c([nH]c3ccccc32)c1=O | 1 | 2.4 | -13 | -9 | 0 | 5357 | -4
Cc1c(N2C(=O)/C(=C\c3ccc(N(C)C)cc3)N(C)C2=S)c(=O)n(-c2ccccc2)n1C | -22 | 6.2 | . | . | . | 5124 | -1
COc1cccc(C(=O)NCC(=O)NCc2cc(=O)n(C)c(=O)n2C)c1OC | -15 | 1.1 | 4 | -12 | 7 | 5643 | 3
COc1ccccc1CCN=C(N)NS(=O)(=O)c1cccs1 | -22 | 3.3 | -9 | -2 | 3 | 2428 | -4
COc1cc(C2C(C#N)=C(C)NC(C)=C2C#N)cc(OC)c1OC | -12 | 0.3 | 2 | -11 | 3 | 2386 | 5
COc1ccc([N+](=O)[O-])cc1N(CC(=O)NCCSc1ccc(C)cc1)S(C)(=O)=O | -20 | -2.2 | -6 | -1 | -11 | 4534 | -8
Cc1ccc(-c2noc(CNC(=O)c3ccoc3C)n2)cc1 | -36 | 5.0 | 3 | 5 | -2 | 5092 | 13
O=C1Nc2ccccc2C(=O)N2C1C1C(=O)N(Cc3ccccc3)C(=O)C1C2c1cccc(Br)c1 (configuration not stated) | . | 5.6 | 7 | 7 | . | . | -3
CCn1c2ccc(C)cc2c2nnc(SCCN3CCOCC3)nc21 | 7 | 0.6 | 13 | 3 | 0 | 3460 | 5
O=c1[nH]oc(O)c1-c1ncc(C(F)(F)F)cc1Cl | -23 | 4.1 | -1 | -14 | -18 | 2498 | 8
Cc1ccc(-n2c(O)c(C=N)c(=O)n(-c3ccc(C)cc3)c2=O)cc1 | -6 | 7.4 | 8 | 0 | -7 | 3466 | 15
CSCCC(NC(=O)c1ccccc1Cl)C(=O)NCC1COc2ccccc2O1 (configuration not stated) | -27 | 2.1 | 8 | -9 | . | 6720 | 9
N=C1/C(=C/c2ccc(OCc3ccccc3F)cc2)C(=O)N=C2SC(CC(=O)N3CCOCC3)=NN12 | -16 | . | . | . | 3 | 4044 | .

One compound at a time, from the list above:
Shown for COc1ccc(CC(=O)Nc2nc(C)cs2)cc1S(=O)(=O)N1CCOCC1 : PrP 5UTR inh = -17; RN4220 kill = 1.1; Mtb hypoxia rep = -2; Mtb hypoxia rep growth = 6; BJeLR viability = .; Autofluor counter = 3383; Sa ugtP lethal = -3
Shown for CSCCC(NC(=O)c1ccccc1Cl)C(=O)NCC1COc2ccccc2O1 (configuration not stated) : PrP 5UTR inh = -27; RN4220 kill = 2.1; Mtb hypoxia rep = 8; Mtb hypoxia rep growth = -9; BJeLR viability = .; Autofluor counter = 6720; Sa ugtP lethal = 9
Shown for O=C(NCc1ccco1)C1CCCN(S(=O)(=O)c2cccc3cccnc23)C1 (configuration not stated) : PrP 5UTR inh = -34; RN4220 kill = -2.1; Mtb hypoxia rep = .; Mtb hypoxia rep growth = .; BJeLR viability = -3; Autofluor counter = 6273; Sa ugtP lethal = 6

(listing goes on)
SMILES | PrP 5UTR inh | RN4220 kill | Mtb hypoxia rep | Mtb hypoxia rep growth | BJeLR viability | Autofluor counter | Sa ugtP lethal
COC(=O)CCCC(=O)NC(C)c1cnn(-c2ccccc2C)c1C (configuration not stated) | -21 | 0.4 | -4 | -40 | 8 | 3446 | 7
CCOC(=O)CNC(=O)COc1coc(CN2CCN(c3ccccc3F)CC2)cc1=O | -7 | 1.8 | 6 | 7 | 8 | 6143 | 1
COC(=O)CSc1nc2c(c(C3CC=CCC3)c1C#N)CCC2 (configuration not stated) | -5 | 1.6 | 3 | 4 | 2 | 3018 | 28
CC(C)n1c(=O)[nH]c2ccccc21 | -11 | 3.7 | 8 | 4 | -7 | 10558 | 13
C=CC(=O)N1c2ccccc2Sc2ccc(NC(=O)OCC)cc21 | -12 | 10 | 3 | -1 | 12 | 3047 | 7
CC1CCCCC1NC(=O)C1CCC(CNS(=O)(=O)c2ccc(F)cc2)CC1 (configuration not stated) | -12 | -0.9 | 2 | 9 | 9 | 3597 | 15
CCn1c(SCC(=O)N2CCCCCC2)nc2c([nH]c3ccccc32)c1=O | 8 | 3.1 | 0 | 2 | 8 | 5722 | -5
COC(=O)CC1COc2ccccc2N1C(=O)c1cccc(C(F)(F)F)c1 (configuration not stated) | -11 | 1.4 | 13 | 2 | 7 | 4447 | 6
Cc1ccc(-n2ncc3c2CC(C)(C)CC3NC(=O)CCCN2CCCC2=O)cc1 (configuration not stated) | -6 | 1.8 | 6 | 8 | -2 | 5313 | 11
CCC(=O)Nc1cccc(NC(=S)NC(=O)c2ccccc2Cl)c1 | -19 | -12 | 1 | 1 | 5 | 3136 | -7
COc1ccc(OC)c(NS(=O)(=O)c2ccc(NC(C)=O)cc2)c1 | -21 | 3.0 | 3 | 5 | 0 | 4111 | 0
CN(Cc1ccccc1)c1nc2c(c(=O)[nH]c(=O)n2C)n1Cc1ccccc1Cl | -9 | 8.1 | 8 | 11 | 4 | 22859* | -8
COC(CNC(=O)C1CCN(C(=O)c2cc3oc(C)cc3n2Cc2c(F)cccc2Cl)CC1)OC | -21 | 2.0 | -6 | -3 | -4 | 2207 | 7
COc1ccc(S(=O)(=O)N2CCc3ccccc32)cc1C(=O)Nc1ccc(C(N)=O)cc1 | -1 | . | . | . | -18 | ? | .
Cc1ncoc1C(=O)N1CCCC(C(=O)c2ccc(C(F)(F)F)cc2)C1 (configuration not stated) | -32 | 7.6 | 12 | 7 | 0 | 4935 | 11
Cn1c(CC(=O)Nc2ccccc2F)nnc1SCC(=O)NC1CCCC1 | -23 | 3.7 | 1 | 7 | 2 | 3590 | 8
CNC(=O)NC(=O)CSc1nc2sccc2c(=O)n1-c1ccccc1 | -3 | 7.5 | -6 | -10 | -4 | 2977 | 3
Cn1c(=O)c(C(=O)CN2CCc3ccccc32)c(N)n(Cc2ccccc2)c1=O | 1 | 5.3 | 11 | -1 | -6 | 3067 | -4
COc1cccc(CN2CCN(Cc3cccn3-c3cccnc3)CC2CCO)c1 (configuration not stated) | -8 | 9.2 | 3 | 8 | 15 | 2154 | -1
CCCCOC(=O)C1=C(C)NC(=O)NC1c1ccc([N+](=O)[O-])s1 (configuration not stated) | -8 | 12 | 8 | 0 | -19 | 2052 | 22

Exported as labelled records: entries from further up.
COc1cccc(CN2CCN(Cc3cccn3-c3cccnc3)CC2CCO)c1 (configuration not stated)
  PrP 5UTR inh: -8
  RN4220 kill: 9.2
  Mtb hypoxia rep: 3
  Mtb hypoxia rep growth: 8
  BJeLR viability: 15
  Autofluor counter: 2154
  Sa ugtP lethal: -1
CCCCOC(=O)C1=C(C)NC(=O)NC1c1ccc([N+](=O)[O-])s1 (configuration not stated)
  PrP 5UTR inh: -8
  RN4220 kill: 12
  Mtb hypoxia rep: 8
  Mtb hypoxia rep growth: 0
  BJeLR viability: -19
  Autofluor counter: 2052
  Sa ugtP lethal: 22

(cont.)
SMILES | PrP 5UTR inh | RN4220 kill | Mtb hypoxia rep | Mtb hypoxia rep growth | BJeLR viability | Autofluor counter | Sa ugtP lethal
Cc1cc(C)cc(N2CCCC2=O)c1 | -56 | 4.6 | 2 | -15 | -4 | ? | 7
C=C(C)C(=O)Nc1cccc(C2=NOC3(C2)C[C@@H](C(N)=O)N(C(=O)/C(C)=C/C)C3)c1 (some centres not stated) | -2 | . | . | . | 14 | 3604 | .
CCN(C[C@H]1N[C@@](CC)(C(=O)OC)[C@H]2C(=O)N(C)C(=O)[C@@H]12)C(=O)NC(C)C | -28 | 0.6 | 1 | 4 | . | 3804 | 2
CCCCn1c(N)c(N(CC(C)C)C(=O)c2cccc(S(=O)(=O)N(C)c3ccc(C)cc3)c2)c(=O)[nH]c1=O | -10 | 0.2 | 8 | -5 | -9 | 6309 | 0
